# WNV NS2B-NS3 inh: blocks West Nile virus NS2B-NS3 protease activity; P06935; z-score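 (tested at a level between 10 and 100 µM)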; WNV NS2B-NS3 protease, fluorogenic substrate Ex360/Em465; stronger effect = lower value; 0.18% of 65,000 active;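 active = z-score at -3 or under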;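 also: score is relative to mean and spread of the compound wells of a plate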
# Target sequence (P06935 1371-1501 limits assumed): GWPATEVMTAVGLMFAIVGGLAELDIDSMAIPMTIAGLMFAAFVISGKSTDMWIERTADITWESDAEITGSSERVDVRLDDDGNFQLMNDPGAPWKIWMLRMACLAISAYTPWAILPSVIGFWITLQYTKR
# Target sequence (P06935 1502-1679 limits assumed): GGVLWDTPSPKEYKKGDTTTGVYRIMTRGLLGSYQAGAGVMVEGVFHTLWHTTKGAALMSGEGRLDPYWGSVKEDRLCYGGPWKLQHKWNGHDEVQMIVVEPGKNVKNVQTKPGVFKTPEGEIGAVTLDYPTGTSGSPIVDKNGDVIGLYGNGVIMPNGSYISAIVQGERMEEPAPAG
# Hsc70 ATP site: small molecules displacing fluorescent ligand from Hsc70 – biochemical, fluorescence polarization, primary screen (AID 568); Hsc70 fluorescence polarization, probe displacement; higher % means a stronger effect; strong numbers were not always called active; one-dose displacement, % at 20 µM; IC50 in µM for titrated hits; 83,000 tested, under 10 active;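 active = displacement above 50% without optical interference and an IC50 on retest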;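 also: ATPase domain with a fluorescein-tagged ATP probe; 0% = vehicle and 100% = excess ADP; read after one hour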
# MT1-MMP promoter: inhibitors of MT1-MMP promoter transcription, cell-based, luciferase reporter, luminescence (AID 618); 0.62% of 87,000 active; MT1-MMP promoter luciferase reporter cells, luminescence; calls from a first round at 10 µM; hits with a dose series show EC50 in µM;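 active = over half of the reporter light lost at 10 µM or EC50 under 50 µM; inactive = the rest and hits that failed the dose series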;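 also: actives suppress MT1-MMP promoter-driven transcription so potencies describe inhibitors; HT1080 fibrosarcoma cells; overnight exposure; toxic or luciferase-blocking compounds were not removed from the actives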
# Active calls of the source: *; i = inactive; / = not tested or not shown. These rows are one share of the data, so the mix of outcomes need not match the whole.
# Values in the order – Hsc70 ATP site	WNV NS2B-NS3 inh	MT1-MMP promoter
CCCn1c(=O)[nH]c(=O)c2[nH]cnc21
    0.1%	-0.66	i
CCC(CC)NC(=O)c1n[nH]c(=O)c2ccccc12
    -4.5%	-0.13	i
Cc1cc(Cl)ccc1OCCCC(=O)NC1CCN(C)CC1
    -6.8%	-0.31	i
O=S1(=O)NC(=NCc2ccccc2)c2ccccc21
    2.0%	1.9	i
CC(C)OC(=O)[C@H]1[C@H](c2ccc(Cl)cc2)[C@@](C#N)(C(N)=O)[C@@H]2C=CC(C(N)=O)=CN21
    7.7%	0.54	i
COc1ccc(C2Nc3ccccc3C(=O)N2O)cc1OC (stereo unspecified)
    -1.4%	-1.3	i
Cc1cc(NC(=O)C(C)Oc2ccc(Cl)cc2Cl)n(-c2ccccc2)n1 (stereo unspecified)
    5.0%	/	i
CCCOc1ccc(N2CC(C(=O)Nc3ccccc3OC)CC2=O)cc1 (stereo unspecified)
    5.4%	1.1	i
CC1=C(C(=O)N2CCOCC2)C(c2cc(C)cs2)NC(=O)N1 (stereo unspecified)
    0.0%	0.46	i
O=C(N(c1ccccc1)c1ccccc1)n1ccnc1
    -0.1%	0.3	i
COCCCNS(=O)(=O)c1ccc2c3c(cccc13)C(=O)S2
    7.3%	-0.99	i
O=C(C1CC1)N1CCN(c2nc3ccccc3s2)CC1
    5.1%	1.1	i
Cc1ccccc1CN1CCN(CC(=O)NCc2ccccc2)C1=O
    -0.6%	0.21	i
Cc1ccc(-c2nn[nH]n2)o1
    0.2%	0.1	i
Cc1ccc(-c2nnc(N(C)C(=O)c3cccnc3)s2)cn1
    2.9%	-0.88	i
CC1=C(C(=O)Nc2ccc(C)cc2C)C(c2ccc(C)o2)NC(=O)N1 (stereo unspecified)
    5.5%	/	i
CC(C)CN(CCNC(=O)CC1Oc2ccccc2NC1=O)CC(C)C (stereo unspecified)
    -6.7%	1.2	i
Cc1ccc(NC(=O)NCCN2C(=O)C3C4C=CC(C4)C3C2=O)cc1 (stereo unspecified)
    2.9%	0.24	i
CN(C)c1nc(N)nc(N(c2ccccc2)c2ccccc2)n1
    4.8%	1.1	i
Cc1ccccc1N1CC(c2nc3ccccc3[nH]2)CC1=O (stereo unspecified)
    -6.1%	1.2	i

# Following part.
# Values in the order – Hsc70 ATP site	WNV NS2B-NS3 inh	MT1-MMP promoter
O=C(O)C1CCN(Cc2cnn(-c3ccccc3)c2-n2cccc2)CC1
    -4.0%	0.25	i
CCN(Cc1ccccc1)C(c1cc2cc(C)ccc2[nH]c1=O)c1nnnn1CCOC (stereo unspecified)
    -6.3%	0.28	i
C=CCn1nnnc1SCC(=O)Nc1cccc(OC)c1
    -3.0%	-0.66	i
CCOC(=O)CNc1nnc(SCC(=O)OCC)[nH]c1=O
    0.0%	-1.6	i
CN(CC(=O)N1CCc2[nH]c3ccc(F)cc3c2C1)CC1OCCO1
    4.9%	/	i
CCCCCCC(=O)Nc1c(O)c2ccccc2[nH]c1=O
    -3.9%	-1.1	i
Cc1ccc(C2(C(F)(F)F)NC(=O)N3CCN=C3S2)cc1 (stereo unspecified)
    0.8%	-0.44	i
Cc1onc(-c2c(Cl)cccc2Cl)c1C(=O)N1CCCc2ccccc21
    -1.3%	/	i
COc1ccc(C)cc1S(=O)(=O)Nc1ccccc1
    -2.3%	/	i
CCOc1ccc2[nH]c3c(N4CCN(c5ccccn5)CC4)ncnc3c2c1
    -5.9%	-0.15	i
CCOC(=O)c1ccc(NC(=O)CSc2nnc(CNc3ccc(OC)cc3)n2C)cc1
    -6.5%	0.32	i
CCCS(=O)(=O)N1CCCC(C(=O)NCC2CCCO2)C1 (stereo unspecified)
    -5.5%	-0.06	i
CCc1cc(C(=O)NCCN(C)C)cs1
    1.2%	-0.38	i
O=C(Cc1ccccc1)N1CCN(C(=O)c2ccco2)CC1
    -1.4%	/	i
CC(C)OCC(O)CS(=O)Cc1ccccc1 (stereo unspecified)
    2.3%	/	i
COC(=O)CSc1nnc(-c2ccco2)o1
    -2.6%	-0.66	i
O=C(Nc1cccc(F)c1)c1cccnc1N1CCOCC1
    1.8%	-0.49	i
COc1ccc(NC(=O)CSc2nc(NS(=O)(=O)c3ccc(C)cc3)cc(=O)[nH]2)cc1
    3.2%	/	i
COc1cc(NC(=O)c2cccs2)cc(OC)c1
    1.9%	0.85	i
COc1cc(NC(=O)c2ccco2)c(OC)cc1NC(=O)Nc1ccc(Cl)cc1
    1.3%	-0.03	i

# (continued)
# Values in the order – Hsc70 ATP site	WNV NS2B-NS3 inh	MT1-MMP promoter
COc1cc(NC(=O)c2ccc3c(c2)OCO3)ccc1NC(=O)c1ccco1
    0.3%	/	i
Cc1onc(-c2ccccc2Cl)c1C(=O)NCCN1Cc2ccccc2C1=O
    2.5%	1.3	i
Cc1ccc(C(=O)NCCCC(=O)O)o1
    3.8%	0.55	i
O=C(CNC(=O)c1cccs1)OCC(=O)c1ccc2ccccc2c1
    8.8%	/	i
O=C(c1ccccc1)c1ccccc1C(=O)N1CCCC1
    5.0%	-0.26	i
COc1ccc(/C=N/n2c(C)nnc2C)c(OC)c1
    -1.0%	-0.18	i
CCOC(=O)COc1ccc2c(c1)C(=O)CC1(CCN(C(C)=O)CC1)O2
    -2.3%	1.3	i
CC(=O)N1CCc2cc(S(=O)(=O)NCCC(=O)N3CCN(c4ccccn4)CC3)ccc21
    -4.9%	-0.56	i
CCCS(=O)(=O)N1CCC(C(=O)N2CCc3ccccc3C2)CC1
    -0.9%	-0.62	i
C=CCn1c(SCC(=O)Nc2cccc(C)c2)nnc1-c1cnccn1
    -8.3%	-1.1	i
O=C(Nc1cccc(F)c1)C1CCN(c2nnnn2-c2ccccc2)CC1
    -4.6%	-1.2	i
Cc1oc(-c2cccc(Cl)c2)nc1CN1CCC(C(=O)NCCCN2CCCC2=O)CC1
    -1.0%	0.55	i
O=C(Nc1ccc(Cl)cc1)C1CC2CCCC(C1)C2=O (stereo unspecified)
    -2.7%	-0.83	i
COc1ccccc1C1CC(c2c(-c3ccccc3)c3cc(Cl)ccc3[nH]c2=O)=NN1S(C)(=O)=O (stereo unspecified)
    -62%	/	i
COC(=O)c1cc2occc2n1CC(=O)Nc1ccc(OC)c(OC)c1
    -4.3%	-1.4	i
O=C(OCCCCN1C(=O)c2ccccc2C1=O)c1ccc(Br)o1
    1.2%	1.2	i
O=C1CC(c2ccccc2)Cc2nc(N3CCc4ccccc43)ncc21 (stereo unspecified)
    -9.1%	-0.33	i
CN1CCCc2cc(C#N)c(=O)[nH]c21
    5.0%	3.8	i
CS(=O)(=O)c1nc2ccccc2n1Cc1ccccc1
    -3.1%	/	i
COC(=O)c1ccc(C(=O)OC)c(NS(=O)(=O)c2ccc(NC(C)=O)cc2)c1
    7.2%	2.2	i

# More structures:
# Values in the order – Hsc70 ATP site	WNV NS2B-NS3 inh	MT1-MMP promoter
CCC(=O)Nc1c(C(=O)N2CCCCCC2)cnn1-c1ccc(C)c(C)c1
    0.2%	-0.52	i
CN(C)CC(C)(C)CNS(=O)(=O)c1cccc(Cl)c1Cl
    0.7%	/	i
O=C(Nc1ccc(S(=O)(=O)NCc2ccccc2)cc1)c1ccc(Br)o1
    1.7%	/	i
CC(C)N(C(=O)CSc1nc2ccccc2n1Cc1ccc(F)cc1)C(C)C
    2.7%	/	i
CCN(CC)S(=O)(=O)c1ccc(Cl)c(C(=O)NC)c1
    1.7%	-0.98	i
Cc1ccccc1C(=O)c1cccn1CC(=O)NCCN1CCN(c2cccc(C)c2C)CC1
    -3.1%	/	i
O=C(NCc1ccccc1Cl)c1cnn2cccnc12
    -1.3%	1.2	i
NC(=O)NC(c1ccccc1)c1ccccc1
    -2.4%	/	i
CCN(CC)S(=O)(=O)c1cccc(C(=O)Nc2cc(C)cc(C)c2)c1
    0.7%	/	i
O=C(Nc1ccc2c(c1)OCCO2)c1cc2sccc2n1Cc1ccccc1
    0.7%	/	i
CCOc1nc(Nc2ccc(OC)cc2)nc(OCC)n1
    2.3%	/	i
CCCn1c(CNc2ccccc2O)nc2ccccc21
    -0.1%	1.9	i
Cc1ccn2cc(C(=O)Nc3ccc4c(c3)OCCO4)nc2c1
    1.9%	-0.38	i
CSc1ccc(S(=O)(=O)NCCSC(C)(C)C)cc1
    -0.9%	/	i
O=C(CCC1COc2ccccc2O1)NCC1COc2ccccc2O1 (stereo unspecified)
    -3.2%	0.28	i
CC(C)(C)c1nc2scc(-c3cccs3)c2c(=O)o1
    1.8%	-0.11	i
Cc1ccccc1C(=O)NNC1=NCCC1
    -2.4%	/	i
Nc1c(NCCC2=CCCCC2)c(=O)[nH]c(=O)n1Cc1ccccc1
    18%	0.26	i
C=CCOn1c(=O)c(-c2cc3ccccc3o2)[n+]([O-])c2ccccc21
    -14%	0.39	i
Cc1ccc(S(=O)(=O)N2CCC(C(=O)Nc3ccccc3N3CCCCC3)CC2)cc1
    -2.0%	-0.84	i

# 5 compounds from above, reduced to Hsc70 ATP site and MT1-MMP promoter.
SMILES	Hsc70 ATP site	MT1-MMP promoter
O=C(Nc1ccc(S(=O)(=O)NCc2ccccc2)cc1)c1ccc(Br)o1	1.7%	i
CC(C)N(C(=O)CSc1nc2ccccc2n1Cc1ccc(F)cc1)C(C)C	2.7%	i
CCN(CC)S(=O)(=O)c1ccc(Cl)c(C(=O)NC)c1	1.7%	i
Cc1ccccc1C(=O)c1cccn1CC(=O)NCCN1CCN(c2cccc(C)c2C)CC1	-3.1%	i
O=C(NCc1ccccc1Cl)c1cnn2cccnc12	-1.3%	i

# Following part:
# Values in the order – Hsc70 ATP site	WNV NS2B-NS3 inh	MT1-MMP promoter
CCC(C)(C)NC(=O)CC(c1ccc(OC)cc1)n1cccc1 (stereo unspecified)
    3.6%	-0.62	i
O=C(CN1C(=O)C2C3C=CC(C3)C2C1=O)NCCc1ccccc1 (stereo unspecified)
    1.5%	0.56	i
COc1ccc(N2CCN(c3ncnc4c3cnn4-c3ccc(C)cc3C)CC2)cc1
    -1.1%	-0.5	i
CCOC(=O)N1CCN(C(=O)CSc2nnc(-c3ccc(C(C)(C)C)cc3)o2)CC1
    2.1%	1.3	i
COCCNC(=O)C1CC(=O)N(C2CCCCC2)C1 (stereo unspecified)
    2.2%	0.27	i
Cc1cc(C)n(-c2ccc(C(=O)Nc3nnc(C)s3)cc2)n1
    2.5%	/	i
O=C(NCCCN1CCCCC1)C1(S(=O)(=O)c2ccc(Cl)cc2)CC1
    1.1%	-0.32	i
CN1C(=O)c2ccccc2C(C(=O)O)C1c1cccc(F)c1 (stereo unspecified)
    2.6%	-0.59	i
COc1ccccc1N(CC(=O)Nc1ccccc1C)S(C)(=O)=O
    1.7%	0.68	i
CCCC(CCC)C(=O)Nc1cccc(C(=O)O)c1
    2.2%	/	i
O=C(C/C=N\OCc1c(Cl)cccc1Cl)Oc1ccc(Cl)cc1Cl
    1.8%	/	i
CCOC(=O)CSc1nc2cc(C(=O)NCc3ccco3)ccc2c(=O)n1-c1ccc(F)cc1
    -3.2%	1	i
CCOC(=O)Cn1c2[n+](c3ccccc31)CC(O)CS2 (stereo unspecified)
    3.3%	/	i
COc1cc2cc(CN(C(=O)NC3CCCCC3)C3CCCC3)c(=O)[nH]c2cc1OC
    -1.1%	-0.44	i
COc1ccc(OC)c(N(CC(=O)N2CCN(c3cc(Cl)ccc3C)CC2)S(C)(=O)=O)c1
    0.9%	-1.1	i
O=c1cc(NCc2ccc3c(c2)OCO3)[nH]c(=O)n1-c1ccc(Cl)cc1
    4.8%	-0.17	i
O=C1CC(c2ccco2)Cc2nc(Nc3ccc(F)cc3)ncc21 (stereo unspecified)
    -2.2%	1.5	i
Cc1cc(C)c(C(N)=O)c(Nc2cccc(Cl)c2C)n1
    -0.3%	0.17	i
CCOC(=O)C(C(C)=O)c1nc(C)nc2c1nnn2Cc1ccccc1Cl (stereo unspecified)
    3.5%	-0.42	i
O=C(c1ccc(-c2nnc(-c3ccccc3)o2)cc1)N1CCCCCC1
    12%	-0.02	i

# Later entries
# Values in the order – Hsc70 ATP site	WNV NS2B-NS3 inh	MT1-MMP promoter
COCCCn1c(SCC(=O)NC2CCCCC2)nnc1-c1ccncc1
    -1.9%	0.28	i
Cc1cc(C(=O)NCc2cccs2)c(C)o1
    6.0%	0.56	i
CCOc1ccccc1CNC(=O)C1CCC(=O)N1C(C)C (stereo unspecified)
    5.6%	-0.53	i
CC(C)=CCc1c(C)nc2ccccc2c1C(=O)O
    -3.0%	-0.91	i
CCOC(=O)N1CCC(Nc2c(N3CCN(c4cc(Cl)ccc4C)CC3)c(=O)c2=O)CC1
    -2.2%	0.17	i
CCN(CC)S(=O)(=O)c1cccc(C(=O)Oc2cccnc2)c1
    -2.6%	-0.83	i
CCc1cccc(NC2c3ccccc3C(=O)N2c2cccnc2)c1 (stereo unspecified)
    3.3%	1.1	i
Cc1ccc(C2c3c(oc4ccc(C)cc4c3=O)C(=O)N2CCCN2CCOCC2)cc1 (stereo unspecified)
    -4.1%	-0.48	i
COc1ccc(NC(=O)CN(C)S(=O)(=O)c2cccs2)cc1
    -0.7%	0.72	i
COCCn1nnnc1CN1CCC(Cc2ccccc2)CC1
    -4.5%	0.28	i
CC1CCN(C(c2ccc(N(C)C)cc2)c2nnnn2Cc2ccccc2)CC1 (stereo unspecified)
    -4.6%	-0.05	i

# Assay outcomes deposited in PubChem BioAssay by several laboratories.
